# Assay outcomes as filed in PubChem.
# HPGD block: HPGD (human) dehydrogenase inhibition; P15428; purified HPGD, NADH fluorescence kinetic, PGE2 substrate; Potency, µM, for the others: top-dose activity change, negative = inhibition, most hits filed as inhibitors; 150,000 tested, 4.3% active; AID 894; active = well fitted inhibition curve with a large enough effect (not every such curve was filed as active); inconclusive = small, poorly fitted or top-dose-only effect, or another doubt; inactive = no such curve, though single readings can be large or run the other way;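 note: top concentration of the series not given in the record; plate controls included wells without enzyme; inactives centre near -10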
# Target sequence (P15428 whole entry, looked up): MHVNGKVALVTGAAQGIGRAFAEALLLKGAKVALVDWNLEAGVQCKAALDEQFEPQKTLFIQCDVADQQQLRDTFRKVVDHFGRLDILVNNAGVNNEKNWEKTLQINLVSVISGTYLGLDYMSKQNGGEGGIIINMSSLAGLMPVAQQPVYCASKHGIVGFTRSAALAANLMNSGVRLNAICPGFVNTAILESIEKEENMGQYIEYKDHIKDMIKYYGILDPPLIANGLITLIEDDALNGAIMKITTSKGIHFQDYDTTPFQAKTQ
#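 NADH formation kinetics: reaction with 30 uM PGE2 and 1 mM NAD+ (final), 20 nM enzyme, Tris-HCl pH 8 with Tween 20, after 15 min compound preincubation at room temperature. Fluorescence change, last versus first of five reads.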
# Starred values were filed as active, the others as inactive; ? = inconclusive; & = joins results of further samples. % is set by controls: 0 for no effect and ±100 for the full control effect; potency is the fitted concentration of half-maximal effect. Only part of the results is shown (hit frequency here may not be typical).
SMILES,HPGD block
COc1ccc(CCNc2oc(COc3ccc(Br)cc3)nc2C#N)cc1OC,-12.4%
CCN(C(=O)c1ccc2c(Cl)c3c(nc2c1)CCC3)c1cccc(C)c1,12.6µM*
Cc1ccc(N2CC(C(=O)Nc3ccc4c(c3)OCCO4)CC2=O)cc1 (stereo not drawn),-3.8%
COc1ccc(CC(=O)N2CC3(C)CC2CC(C)(C)C3)cc1OC (stereo not drawn),-19.8%
Cc1nc2c(C(=O)N3CCOCC3)cnn2c(C)c1Cc1cccc(Cl)c1,?
CCN1C(=O)/C(=C\c2ccc(F)cc2)N=C1SCC(=O)NCc1ccco1,-6.1%
O=C(O)CCN1C(=O)c2ccc(Oc3ccc4c(c3)C(=O)N(CCC(=O)O)C4=O)cc2C1=O,-6.4%
CCCn1c(=O)c(C(=O)Nc2ccccc2C(=O)OC)c(O)c2ccccc21,?
Cc1cccc(NC(=O)COc2ccccc2C)n1,-10.1%
COc1ccc(N2C(=O)C(Cl)=C(Nc3ccccc3O)C2=O)cc1,14.1µM*

# More structures.
SMILES,HPGD block
COCCn1c(=O)c(CCc2ccccc2)nc2cnc(Oc3cccc(Cl)c3)nc21,-9.2%
O=C1CC(c2ccccc2)n2nc(NC(=O)c3cccs3)nc2N1 (stereo not drawn),-7.6%
O=C(Nc1ccc(Cl)c(Cl)c1)C1CC(=O)N(c2ccc(Br)cc2)C1 (stereo not drawn),-18.9%
O=C(c1ccc(Cl)s1)N1CCCC1,7.94µM*
O=C1C2C(c3ccccc3)=NN(c3ccccc3)C2C(=O)N1c1ccccc1 (stereo not drawn),?
CCOC(=O)C1=C(C)c2ccccc2OC1(CC)C(=O)OCC (stereo not drawn),-11.4%
COc1ccc(Nc2nnc(SCC(=O)Nc3cc(C)on3)s2)cc1,-7.1%
Nc1nc(CN2CCN(Cc3ccccc3)CC2)nc(Nc2ccc3c(c2)OCCO3)n1,-8.5%
COc1ccc(Nc2nc3ccccc3n3nnnc23)cc1,-8.2%
O=C(CSc1nnc(-c2ccco2)n1Cc1ccccc1)NC(=O)NCc1ccccc1,-10.0%

# Next section
SMILES,HPGD block
O=C(NC1CCCCCC1)c1ccccc1-c1ccccc1,-15.7%
CC(C)NC(=O)c1onc(CSc2cccc(Cl)c2)c1C(=O)O,-21.1%
CC(C)c1ccc(OCC(O)Cn2cnc3ccccc32)cc1 (stereo not drawn),-4.8%
COC(=O)C1C(=O)/C(=C(/C)N2CCCC2)C(=O)CC1(C)C (stereo not drawn),-9.9%
O=C(Cn1c(SCC(=O)N2CCc3ccccc32)nc2ccccc21)NC1CCCC1,1.7%
Cc1cc(C)c2nc(NC(=O)[C@@H](NC(=O)c3cccc(S(=O)(=O)N4CCOCC4)c3)C(C)C)sc2c1,-16.6%
CCCC1=NN2C(=N)/C(=C\c3cc(C)n(-c4cccc(C)c4)c3C)C(=O)N=C2S1,?
CCCc1cc(=O)[nH]c(SCC(=O)N2CCC(C(=O)OCC)CC2)n1,-20.5%
Cc1cc(NC(=O)C2CCCC2)n(-c2nc3ccccc3[nH]2)n1,-8.5%
Cc1cc(C)n(C(=O)c2cccc(S(=O)(=O)N3CCCC3)c2)n1,-15.7%

# Going on with the list:
SMILES,HPGD block
O=C(CCS(=O)CCC(=O)NCc1ccccc1)NCc1ccccc1,-5.3%
CCC1CO1 (stereo not drawn),-4.5%
N/C(Cc1cccs1)=N\OC(=O)COc1ccc(Br)cc1Cl,-23.2%
CC(=O)N1CC=C2C(C#N)=C(N)C(C#N)(C#N)[C@H](c3ccoc3)[C@H]2C1,-10.2%
CC1CCN(C(=S)c2ccc([N+](=O)[O-])cc2)CC1,22.4µM*
COc1ccc(OCC(O)CN2CCN(Cc3ccc4c(c3)OCO4)CC2)cc1 (stereo not drawn),-13.5%
CCN(CC)CCNC(C(=O)Nc1ccc([N+](=O)[O-])cc1Br)c1ccccc1 (stereo not drawn),-15.3%
CCN(CC)CCOC(=O)C1(C2CCCCC2)CCCCC1,-8.4%&-11.2%&-2.2%&-0.3%
CCN(CCC(=O)Nc1cc(OC)cc(OC)c1)Cc1ccccc1,-11.6%
Cn1c(COc2ccc3ccccc3c2)nnc1SCC(=O)O,-21.0%

# Other entries:
SMILES,HPGD block
CCn1cc([N+](=O)[O-])c(C(=O)Nc2ccc(Cn3nc(C)cc3C)cc2)n1,-12.4%
CN(C(=O)COc1ccccc1C(=O)NCCc1ccccc1)c1ccccc1,-0.2%
COc1ccc(/C(N)=N/OC(=O)CCCc2ccccc2)cc1,-0.5%
C=CCn1c(SCC(=O)/C(C#N)=C(\C)N)nc2sc(C)c(C)c2c1=O,-10.5%
Cc1occc1-c1n[nH]c(=S)n1CC(C)C,-22.3%
COc1ccc(NC(=O)CCC(=O)Nc2nnc(C(F)(F)F)s2)c(OC)c1,-8.6%
Cc1ccc(-c2nc3sc4c(c3c(=O)n2N)CCCC4)cc1,?
N#Cc1nc(Cc2cccc3ccccc23)oc1NCCN1CCOCC1,-3.0%
C=CCn1c(SCc2cccc(F)c2)nc2cc(C(=O)N3CCC(C(N)=O)CC3)ccc2c1=O,-12.4%
O=C1/C(=C\c2cccnc2)SC(=S)N1C1CCS(=O)(=O)C1 (stereo not drawn),-7.0%

# More structures
SMILES,HPGD block
C[C@H](O)Cn1cnc2c1c(=O)n(C)c(=O)n2C,-5.3%
Cc1ccc(NC(=O)c2ccccc2NS(=O)(=O)c2ccc(Cl)s2)cc1,-5.7%
C=CCn1c(SCCC)nc2sc3c(c2c1=O)CCc1ccccc1-3,-14.2%
O=c1c(-c2ccc(F)cc2)nc2cncnc2n1C1CC1,-17.8%
CCOC(=O)C1C(c2ccccc2)C(C(=O)OCC)C1c1ccccc1 (stereo not drawn),-15.0%
CNc1ncc(C(=O)C(C)(C)C)s1,-18.4%
CCn1ccc(C(=O)Nc2ccc(S(=O)(=O)Nc3ccccc3OC)cc2)n1,-18.3%
CC(C)(C)c1cc(C(=O)Nc2ccccc2)ccn1,-3.3%
COCCNC(=O)c1ccccc1-c1nc(-c2ccccc2Cl)no1,-11.9%
CN(C(=O)C1CCOC1)c1nnc(-c2cccnc2)s1 (stereo not drawn),-1.3%

# Next part.
SMILES,HPGD block
CC(=O)c1ccc(NC(=O)c2ccc3c(Cl)c4c(nc3c2)CCCC4)cc1,-27.4%
Cc1ccccc1CSc1nnc(C)c(=O)[nH]1,?
O=c1oc2ccccc2c(O)c1/C=N/c1ncccn1,?
CC(C)(C)c1ccc(C(=O)CS(=O)(=O)c2ccccc2)cc1,-17.0%
CN(c1ccccc1)c1nc2ccsc2c(=O)s1,28.2µM*
CC1CCCN(C(=O)c2ccc3c(=O)n(Cc4ccc5c(c4)OCO5)c(=S)[nH]c3c2)C1 (stereo not drawn),5.01µM*
Cc1cc(C)cc(NC(=O)CSc2ccc(-c3ccco3)nn2)c1,?
Cc1cccc2sc(N(CCN(C)C)C(=O)c3cc(Cl)sc3Cl)nc12,-19.3%
CCCCN(C(=O)CNC(=O)c1ccco1)C(C(=O)NC1CCCC1)c1ccc(OC)cc1 (stereo not drawn),-16.7%
CC(Sc1nncn1C)C(=O)Nc1nnc(C(C)C)s1 (stereo not drawn),-8.0%

# (cont.)
SMILES,HPGD block
CCOc1cccc2sc(NC(=O)c3ccc(Br)s3)nc12,?
Cc1cc(C)n(-c2ccc(C(=O)Nc3sccc3C(N)=O)cc2)n1,?
Cc1cc(C=O)c(C)n1-c1cc(C(F)(F)F)ccc1N1CCOCC1,-0.9%
Cc1ccc(-c2n[nH]c(=O)c3ccccc23)cc1N,-14.3%
O=C(NCc1cccs1)C(=O)NCC1OCCCN1S(=O)(=O)c1ccc(F)cc1 (stereo not drawn),-5.5%
COc1cc(C(=O)OC(C)C(=O)Nc2ccc3c(c2)OCO3)ccc1OCc1c(C)noc1C (stereo not drawn),-14.7%
Cc1ccc(/C=N/n2c(C)nnc2C)o1,-17.1%
CCN(CC)CC(C)(C)NS(=O)(=O)c1ccc(Cl)cc1,-7.6%
Cc1nnc(SC(C)C(=O)NCC2CCCO2)n1-c1ccccc1 (stereo not drawn),-6.9%
COCC(=O)Nc1ccc(Nc2ccccc2)cc1,?

# (more compounds)
SMILES,HPGD block
COc1ccc(/C=N\NC(=O)c2c(C)nc3ccc(Br)cn23)cc1,-6.6%
CSC(=NC#N)N1CCN(c2cccc(Cl)c2)CC1,-15.3%
CSC(=NC(C)c1ccccc1)NS(=O)(=O)c1cccs1 (stereo not drawn),-1.2%
C=CCC(C)(O)c1cccc(Br)c1 (stereo not drawn),-2.1%
COC(=O)c1ccc(CSc2nnc(NC(C)C)s2)cc1,?
O=C(COc1ccc(Cl)cc1)N1CCN(c2ccc([N+](=O)[O-])c(N3CCCCC3)c2)CC1,-8.9%
CC(=O)OCC(OC(C)=O)C(OC(C)=O)C(OC(C)=O)C(=O)Nc1ccccc1C (stereo not drawn),-13.4%
COc1ccc(NC(=O)CN2CCOCC2)cc1,-13.4%
Cc1cc2cc(CN(Cc3ccc4c(c3)OCO4)Cc3nnnn3C3CCCC3)c(=O)[nH]c2cc1C,-26.3%
O=C(CSc1nnc(Cc2ccccc2)n1C1CCCCC1)N1CCOCC1,-4.5%

# Continued:
SMILES,HPGD block
COc1cc(/C=N/NC(=O)c2nc(C)cc(C)n2)ccc1O,-15.2%
COc1ccc(-n2c(Cc3cccn3C)nnc2SCC(=O)Nc2cc(C)cc(C)c2)cc1,-3.4%
CCCc1c(C)nc2ccc(OC)cc2c1SCCC(=O)O,?
O=C(CCCCC(=O)Nc1c(I)cc(I)c(C(=O)O)c1I)Nc1c(I)cc(I)c(C(=O)O)c1I,3.9%
CSc1n[nH]c(NCc2cccs2)n1,-15.5%
CC(=O)c1ccc(N2CCN(C(=O)c3ccco3)CC2)c(F)c1,15.8µM*
CC1(C)OC(C)(C)/C(=C/Nc2ccccc2)C1=O,-14.9%
CCN(CC)c1ccc(C=Nc2ccc(N(C)C)cc2)c(O)c1,-2.3%
CCCCc1cc2c(c(NC(C)=O)n1)c(=O)oc1ccccc12,-14.3%
NC(=O)CCn1nc(-c2ccc(Cl)cc2)c2ccccc2c1=O,1.1%

# Next results follow:
SMILES,HPGD block
CC(C)NCC(O)COCc1ccc(Cl)cc1 (stereo not drawn),-4.0%
CC(=C/c1ccccc1)/C=N/Nc1nc(N2CCOCC2)nc(N2CCOCC2)n1,-7.7%
CCN1CCN(C(c2ccccc2F)c2nnnn2Cc2ccc3c(c2)OCO3)CC1 (stereo not drawn),-0.6%
Cc1ccc(C(O)(c2ccccc2)c2ccccc2C(C)N(C)C)c(C)c1 (stereo not drawn),-16.6%
CCOC(=O)c1c(-c2ccc(C)cc2)csc1NC(=O)CCN1CC(C)OC(C)C1 (stereo not drawn),?
O=C1c2ccccc2NC(c2ccc3c(c2)OCCO3)N1c1ccc2c(c1)OCCO2 (stereo not drawn),-21.8%
CCCOc1cccc(OCCSc2nc(C)cc(=O)[nH]2)c1,-20.8%
COc1ccc(CC(=O)Nc2cccc(C(=O)NN3C(=O)c4ccccc4C3=O)c2C)cc1,-8.5%
CCOc1ccc(OCc2ccc(C(=O)NCc3ccncc3)o2)cc1,-12.6%
CN(C)S(=O)(=O)c1ccc(C(=O)Nc2nnc(SCc3cccc4ccccc34)s2)cc1,?

# Continuation:
SMILES,HPGD block
NC(N)=Nc1nc(CCN2C(=O)c3ccccc3C2=O)cs1,-8.1%
O=[N+]([O-])c1ccc(/C=N/NC(=S)Nc2ccccc2)o1,25.1µM*
CCOC(=O)c1c(-c2ccccc2)csc1NC(=O)CSc1nnc(C)s1,-8.2%
CC(=O)c1c(C)[nH]c(C(=O)COC(=O)c2cc(S(=O)(=O)N(C)c3ccccc3)ccc2Cl)c1C,-21.1%
O=C(O)Cc1ccc(C(=O)c2ccc(Cl)cc2)s1,?
CCN(CC)S(=O)(=O)c1ccc(Nc2ccc(-c3ccc4c(c3)OCCO4)nn2)cc1,?
O=C(CSc1nnc2ccccn12)NCCN1C(=O)CSC1=O,-20.4%
Cc1c(C)n(C(=O)CN2CCC(C(N)=O)CC2)c2ccccc12,-29.4%
O=C(CCN1C(=O)C2CC=C(Cl)CC2C1=O)N1CCCCC1 (stereo not drawn),-28.4%
COCCNc1cc(-c2ccccc2CN(C)C)ncn1,-27.4%

# (listing goes on)
SMILES,HPGD block
CC(C)COCC(O)CCC(=O)NNC(=S)Nc1ccccc1 (stereo not drawn),-15.9%
COc1cccc(OC)c1C(=O)NC(C)c1ccccc1 (stereo not drawn),3.0%
Cc1cc(C(=O)OCC(=O)Nc2nnc(C(C)C)s2)c2ccccc2n1,-10.9%
O=C(NCCc1ccc(Cl)cc1)c1nnc(Cc2ccc(Cl)cc2)o1,-7.5%
Cc1nnsc1-c1nc2ccccc2[nH]1,?
CC(=O)N(c1nc(CCl)cs1)c1c(C)cc(C)cc1C,-6.0%
CCN(CC)c1ccc2c(c1)C(=O)N(C)C2=O,17.8µM*
Cc1nn(CCC(=O)NNC(=S)NCC(C)C)c(C)c1Br,-4.7%
NCCC[C@@H](CC(=O)N[C@@H]1CCNC[C@H]1C(=O)N[C@H](CC(=O)N[C@@H](CCC(=O)O)CC(=O)O)Cc1c[nH]c2ccccc12)NC(=O)C[C@H](Cc1ccccc1)NC(=O)[C@@H]1CCCC[C@H]1N,-7.4%

# In the list so far, three contain a tert-butyl group:
SMILES,HPGD block
CNc1ncc(C(=O)C(C)(C)C)s1,-18.4%
CC(C)(C)c1cc(C(=O)Nc2ccccc2)ccn1,-3.3%
CC(C)(C)c1ccc(C(=O)CS(=O)(=O)c2ccccc2)cc1,-17.0%
